Vif TR-FRET – inhibitors of Vif binding to APOBEC3G peptide, primary screen, biochemical, TR-FRET, GST-Vif 1-94, biotin-A3G peptide, dose response retest (AID 1117319); TR-FRET GST-Vif / biotin-A3G peptide binding; higher % means a stronger effect; test concentration not given here; strong numbers were not always called active; inhibition, %, or IC50 in µM where a hit was titrated; 0.57% of 260,000 active;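 active means above the screen mean plus three standard deviations and confirmed in dose response; inconclusive means results disagree or hit not tested in dose response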;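 further: Vif residues 1-94 fused to GST binding biotinylated APOBEC3G peptide 110-148; 0% = full assay without inhibitor and 100% = GST in place of GST-Vif; retest series ran down from 100 µM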
LANA-H2A inh – blocks KSHV LANA binding to histone H2A/H2B. Q9QR71. 0.6% of 320,000 active. inhibition, % (concentration not given with the values). cell-free LANA-H2A/H2B peptide, fluorescence polarization; in the data active means inhibition mostly above about 10%, no sharp cut-off; inactive means mostly below about 6.7%;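 further: stock transfer was 7.5 nL into about 10 µL; 0% = median of vehicle wells and 100% = median of positive control wells; one replicate is shown; the record names a cut of 25% in any replicate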
A1 inh – inhibitors of the anti-apoptotic protein A1, read as caspase activation | MEF A1-2A-BIM cells, Caspase-Glo 3/7 luminescence, 3 h; percent of clofoctol response, vehicle zero | caspase activation, % (no concentration beside the values) | 0.066% of 330,000 active;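 active means over half of replicate activation scores above 10%, or exactly half above 10 with the replicate mean above 10; inconclusive means replicate mean below 10 yet half the replicates above 10; inactive means over half of replicates below 10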;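 further: wells of about 30 µL received 50 nL stock; many hits fall short of the cut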
E coli growth – inhibitors of Escherichia coli growth | OD600, 23 h; hits give low values | OD600 absorbance (concentration not given with the values) | 0.21% of 330,000 active;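 active means OD600 absorbance below the run mean of sample wells minus 3.6 SD, in any replicate, cut at about 0.56 in these data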;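 further: stock transfer was 300 nL into about 60 µL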
UCH37 DUB inh – inhibitors of human deubiquitinating enzyme UCH37; 0.33% of 330,000 active; inhibition, % (concentration not given with the values); purified proteasome/UCH37, Ub-AMC cleavage fluorescence;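 active means mean of two replicates above 20%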;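 further: 0% = compound-free wells with enzyme and 100% = wells lacking proteasome; stock transfer was 100 nL into about 20 µL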
Target sequence (Q9Y5K5 whole entry, looked up): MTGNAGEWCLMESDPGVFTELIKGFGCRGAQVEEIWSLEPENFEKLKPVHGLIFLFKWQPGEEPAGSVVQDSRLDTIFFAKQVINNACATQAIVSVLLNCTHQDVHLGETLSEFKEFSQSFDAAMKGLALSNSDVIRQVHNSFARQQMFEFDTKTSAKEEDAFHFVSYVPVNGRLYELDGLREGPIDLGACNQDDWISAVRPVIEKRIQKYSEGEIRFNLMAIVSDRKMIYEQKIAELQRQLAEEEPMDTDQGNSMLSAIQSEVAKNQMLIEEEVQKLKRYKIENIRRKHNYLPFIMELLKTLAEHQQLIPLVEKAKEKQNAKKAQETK
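System: Proteasome-associated human UCH37 deubiquitinase; Input: 0.15 nM proteasome in added enzyme buffer; Also added: Ub-AMC substrate from 1 µM stock; Incubation: 30 min compound-proteasome preincubation then 25 min substrate reaction, room temperature; Detection: fluorescence, ex 355 nm, em 460 nm; Read-out: % inhibition of Ub-AMC cleavage fluorescence; Benchmarks: no-proteasome and no-compound wells.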
HNF4A DNA FP – change in binding of human HNF4 alpha to DNA; HNF4a-FITC DNA binding, fluorescence polarization, 1 h; activity change, % at 10 µM; 0.3% of 360,000 active; in the data active means activity change above about 30%, passing the limit was not always enough;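 further: controls were the assay level and a saturating level of protein; the project sought stronger binding though the title names inhibitors; some compounds called inactive have numbers as strong as hits; positive values seem to mean higher polarization but the record does not say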
Target sequence (P41235 whole entry, looked up): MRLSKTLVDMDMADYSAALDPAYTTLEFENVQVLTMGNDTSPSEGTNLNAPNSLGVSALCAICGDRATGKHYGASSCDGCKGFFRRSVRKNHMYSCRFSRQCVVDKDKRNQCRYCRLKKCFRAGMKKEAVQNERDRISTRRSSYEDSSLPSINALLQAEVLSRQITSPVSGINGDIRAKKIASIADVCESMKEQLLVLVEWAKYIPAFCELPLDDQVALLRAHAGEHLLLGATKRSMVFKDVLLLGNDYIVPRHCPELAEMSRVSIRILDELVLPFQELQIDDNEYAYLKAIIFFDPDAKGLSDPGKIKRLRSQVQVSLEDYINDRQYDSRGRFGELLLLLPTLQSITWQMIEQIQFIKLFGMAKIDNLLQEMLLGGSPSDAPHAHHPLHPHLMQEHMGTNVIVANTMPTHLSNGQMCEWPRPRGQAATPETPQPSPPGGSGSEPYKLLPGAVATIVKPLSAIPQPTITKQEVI
Beta2AR agonist – agonists of human beta-2 adrenergic receptor inducing internalization; P07550; Am2.2-beta2AR cells, FAP receptor internalization, flow cytometry; reference of the scale not given here; response, % (concentration not given with the values); 0.43% of 340,000 active; AID 504454;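 active means response above a set limit, near 3 SD of response in nonfluorescent compounds, cut at about 42% in these data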;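 further: stock transfer was 100 nL into about 11 µL; a reference agonist was the positive control; negative values mostly stem from fluorescent compounds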
* = called active by the depositor; ? = inconclusive; . = no result given; & = joins results of further samples.

SMILES	Vif TR-FRET	LANA-H2A inh	A1 inh	E coli growth	UCH37 DUB inh	HNF4A DNA FP	Beta2AR agonist
COc1cccc(CC(NC(C)=O)C(=O)NC2CCN(S(=O)(=O)c3ccc(C)cc3)CC2)c1OC (stereo not drawn)	-3.3%	-1.4	0.0	0.662	2.5	4.2	4.8
O=C(Nc1cccc(Cl)c1)OCc1cnc(Cl)s1	-5.2%	6.2	0.0	0.736	1.2	-2.8	4.2
CC1c2[nH]c3ccccc3c2CCN1S(C)(=O)=O (stereo not drawn)	-0.2%	13.2	-0.1	0.727	-2.0	-0.2	4.3
O=[N+]([O-])c1ccc2nc(-c3ccc(Cl)cc3)n(OCc3ccccc3)c2c1	1.9%	-3.5	-0.3	0.688	4.4	1.3	0.3
O=C(Nc1ccc(Br)cc1)Nc1ccccc1Cl	-7.9%	1.9	-5.4	.	.	-0.4	-3.7
COc1cc(C(=O)OCC(=O)NCC2CCCO2)cc(OC)c1OC (stereo not drawn)	.	2.2	-1.1	0.678	0.9	-1.5	7.2
CCNC(=S)Nc1ccc(Cl)cc1Cl	-3.0%	-2.2	0.6	0.708	3.0	-0.9	4.4
CC(C)CNC(CC(=O)Nc1cccc([N+](=O)[O-])c1)C(=O)O (stereo not drawn)	-25.3%	2.2	-0.6	0.673	0.8	4.9	-88.3
O=C(NCC1CCCO1)c1cc(C(=O)C2CC2)c[nH]1 (stereo not drawn)	-11.9%	1.4	1.2	0.721	3.1	2.9	1.3
CC(C)CC1(C)NC(=O)N(CC(=O)Nc2ccc3c(c2)OCCO3)C1=O (stereo not drawn)	4.6%	2.3	0.9	0.68	0.0	-0.6	1.9
COc1ccc(NC(=O)Nc2ccc3c(c2)C(=O)N([C@H](C)CO)C[C@H](C)[C@@H](CN(C)C(=O)NC2CCCCC2)O3)cc1	.	-84.1	-0.1	.	.	1.8	-3.3
CN(C(=O)COC(=O)c1ccc(=O)n(Cc2ccccc2)n1)c1ccccc1	7.7%	-6.6	0.6	0.72	0.1	-3.4	0.1
O=C(C[C@H]1C/C=C\C[C@H](Cc2ccc(F)cc2)C(=O)O[C@@H](c2ccccc2)CNC1=O)NCCO	.	-0.8	0.1	.	0.1	0.7	-5.3
C/C(Cc1ccccc1)=N\NC(=O)c1cc(C(C)(C)C)[nH]n1	-4.8%	-0.6	-0.2	.	.	-2.9	-6.3
Cc1nc2ccccc2n1CCc1ccccc1	.	-1.4	1.4	0.653	-0.7	1.0	13.2
Cc1ccccc1Cn1c(-c2cncs2)nc2ccccc21	25.1%	-2.3	0.2	0.672	1.2	-3.2	-5.6
CN(C(=O)COc1ccc(Cl)cc1)C1(C)CCS(=O)(=O)C1 (stereo not drawn)	-5.4%	-0.5	-0.1	0.718	6.8	-0.5	1.7
CCOC(=O)N1CCN(C(=O)c2ccccc2Oc2ccccc2)CC1	1.0%	0.0	0.4	0.757	2.9	-2.6	3.0
Nc1nonc1-n1nnc(C(=O)N/N=C/C2CCCCC2)c1-c1ccccc1	.	0.6	0.0	.	.	-7.9	0.3
COc1cc(OC)cc(C(=O)Nc2ccccc2-c2nnn(CC(N)=O)n2)c1	.	1.0	0.3	0.681	-3.9	2.5	-0.8
CC(Sc1nnc(-c2ccccc2)c(-c2ccccc2)n1)C(=O)Nc1ncc(Cl)cc1Cl (stereo not drawn)	.	1.0	0.0	0.736	-51.4	-1.9	-13.2
Cc1cc(Br)ccc1NC(=O)C1C2CCC(O2)C1C(=O)O (stereo not drawn)	.	-0.6	2.0	.	.	0.0	-4.6
COc1ccccc1/C=C/C=N/N1CCN(Cc2ccc(Cl)cc2)CC1	0.4%	-1.9	-0.3	.	.	-2.7	3.4
Cc1ccc(CN2CCNC(=O)C2CC(=O)N(C)Cc2cnccn2)cc1 (stereo not drawn)	.	1.8	-0.2	0.682	-5.9	-0.4	10.7
Nc1nc(SCc2ccc(Br)cc2)n[nH]1	-4.7%	-1.0	-0.2	0.645	4.6	1.5	-1.3
C=CCNCCCCOc1ccc(OCC)cc1	?	0.9	-1.2	0.734	-0.4	1.5	-0.3
O=C(c1ccc(NS(=O)(=O)c2ccccc2)cc1)N1CCCCCC1	.	-3.7	1.3	0.729	1.3	1.4	1.4
COc1cc(NS(=O)(=O)c2ccc(F)cc2)c(OC)cc1NC(C)=O	?	1.4	-0.1	0.741	-2.4	2.7	-5.1
CCCCN1CC2([N+](=O)[O-])C=CC(=O)C([N+](=O)[O-])(C1)C2CC(=O)c1ccccc1 (stereo not drawn)	19.3%	.	?	0.671	6.8	-0.3	5.2
Cc1nc2ccc(C(=O)Nc3cccc([N+](=O)[O-])c3)cc2s1	-4.1%	-2.4	-2.0	0.661	2.4	6.1	.
Cc1cccc(CSc2nn3c(=O)c(C)nnc3s2)c1	.	-0.7	0.4	0.696	3.0	0.3	1.0
O=C(Nc1ccccc1N1CCN(C(=O)c2ccccc2)CC1)c1ccc(Cl)cc1	.	-1.2	-0.9	0.73	2.2	-1.4	4.0
Cc1ccc2c(c1)N(C(=O)CCC(=O)N1CCC(C(N)=O)CC1)CCO2	.	-0.5	2.1	0.674	5.4	-4.1	21.6
CCOc1ccc(N2C(=O)C(Cl)=C(N3CCOCC3)C2=O)cc1	.	1.7	1.0	0.648	4.9	2.1	-3.8
Cc1nnc2ccc(-c3cccc(NC(=O)c4ccc(Cl)nc4)c3)nn12	3.5%	0.1	0.4	0.636	2.2	1.0	4.3
O=C(CCCC(=O)N(CC(=O)NC1CCCC1)Cc1ccccc1Cl)Nc1ccccn1	23.4%	-2.4	-0.3	0.681	-0.3	-0.7	-4.2
CCOc1ccc(CNC(=O)CCn2c(=O)oc3ccccc32)cc1OC	0.0%	3.2	0.1	0.669	1.4	2.7	-3.5
CC(=O)c1cc(-c2ccccc2)[nH]c1N1CCOCC1	3.7%	3.5	-0.3	0.707	6.5	-15.0	2.2
Cc1ccc(P(=Nc2ccccc2)(N2CCOCC2)N2CCOCC2)o1	20.0%	-4.3	-2.4	0.683	0.8	-0.1	4.4
C#CCOCCOCCOCCNc1nc(N2CCN(C(=O)C(CCC(=O)O)n3cc(C(N)CC(C)C)nn3)CC2)nc(N2CCN(C(=O)C(Cc3cc4ccccc4[nH]3)n3cc(C(N)Cc4ccc(O)cc4)nn3)CC2)n1 (stereo not drawn)	-8.2%	-1.0	1.5	.	0.6	1.1	1.6
CC1=CC(c2ccccc2)n2nc(NC(=O)CCCC(=O)O)nc2N1 (stereo not drawn)	-2.1%	1.5	0.7	0.682	-224.8	4.6	4.3
CC1Sc2ccc(S(=O)(=O)CCC(=O)Nc3ccccn3)cc2NC1=O (stereo not drawn)	-4.2%	-2.0	0.5	0.692	1.6	2.0	0.1
CCCOc1ccc(N2C(=O)CC(N(Cc3ccc(OC)cc3)C(=S)Nc3ccccc3)C2=O)cc1 (stereo not drawn)	-4.8%	-5.1	0.5	0.667	4.2	3.4	-1.2
CC(OC(=O)CNC(=O)c1cccc(F)c1)C(=O)NC1CCCCC1C (stereo not drawn)	1.5%	1.4	-0.1	0.725	2.0	2.0	-9.2
Cc1onc(-c2ccccc2Cl)c1C(=O)OCC(=O)c1ccc2c(c1)OCCO2	4.0%	-0.4	-0.7	0.75	-2.2	-1.7	9.3
CC(=O)c1ccc(-c2ccc([C@H]3[C@@H]4C=CCC[C@@]4(C)C(=O)N3Cc3ccccc3)c(F)c2)cc1	-3.0%	-0.5	0.2	.	0.7	3.2	12.7
CCOC(=O)Nc1cccc(OCC(=O)Nc2ccccc2OCC)c1	3.1%	2.1	-0.1	0.691	1.9	-5.7	4.0
Cc1ccc(N2C(=NC(=O)c3ccccc3)SC3CS(=O)(=O)CC32)cc1 (stereo not drawn)	.	3.1	-0.4	0.682	1.0	-3.6	-3.5
O=C(COC(=O)c1ccc(O)cc1)Nc1ccc(OC(F)F)cc1	2.5%	2.6	-0.7	0.612	4.8	-5.6	6.3
O=S(=O)(NCCCN1CCN(c2ccccc2F)CC1)c1cccc2cccnc12	1.3%	-2.2	-0.4	0.735	5.3	-1.5	-1.3
COC(=O)c1c(NC(=O)c2ccc([N+](=O)[O-])o2)sc2c1CCN(C(C)C)C2	.	-1.5	-0.1	.	.	-1.0	30.4
COc1ccc(C(=O)N2CCN(S(=O)(=O)c3ccc4c(c3)OCCO4)CC2)cc1OC	.	-1.5	-0.4	0.676	3.4	1.4	-3.4
COc1ccc(-c2cc(C(F)(F)F)n3nc(C(=O)NCCCn4ccnc4)cc3n2)cc1	-0.9%	0.2	-0.4	0.665	-325.7	3.0	-4.3
NC(=O)c1ccc(NC(=O)CSc2nnc(-c3ccncc3)n2Cc2ccco2)cc1	5.2%	1.5	2.7	0.696	0.0	2.2	-4.0
COc1ccccc1CN(C)C(=O)C(c1ccccc1)c1ccccc1	.	-6.4	0.8	0.682	2.1	-0.5	7.0
CCOc1cc(/C=C\c2nc(O)c([N+](=O)[O-])c(=O)[nH]2)ccc1OC(C)CC (stereo not drawn)	2.6%	2.4	0.4	0.694	17.1	3.7	-3.2
CC1/C(=N/O)CC(c2ccccc2)N(C)C1c1ccccc1 (stereo not drawn)	20.1%	2.9	1.3	.	.	0.2	-3.2
COc1ccc(C2C(C(=O)Nc3cccnc3)=C(C)Nc3nc(-c4cccs4)nn32)cc1OC (stereo not drawn)	6.5%&-9.7%	-2.9	0.6	0.696	4.8	1.6	-3.9
Cc1ccc(NS(=O)(=O)c2c(C)[nH]c(C)c2C(=O)N2CCCCC2)c(Br)c1	-1.2%	1.9	-0.3	0.709	5.5	0.9	-1.4
O=[N+]([O-])c1ccc(Oc2ccc(S(=O)(=O)Nc3ccccc3)cc2)cc1	.	.	0.2	0.657	-14.2	-0.3	-9.4
The results go on.
SMILES	Vif TR-FRET	LANA-H2A inh	A1 inh	E coli growth	UCH37 DUB inh	HNF4A DNA FP	Beta2AR agonist
O=C(CCl)Nc1ccc(Sc2ccc(NC(=O)CCl)cc2)cc1	-4.5%	.	.	0.585	3.3	6.4	9.6
C=CCn1c(O)c(N=O)c2cc(C)ccc21	21.1%	-9.4	0.5	.	.	-2.1	4.1
Cc1ccc(N(Cc2cc3ccccc3[nH]c2=O)S(=O)(=O)c2ccccc2)cc1	.	4.2	0.8	0.684	-0.8	-5.0	-23.2
Cn1c(=O)n(C)c2cc(NS(=O)(=O)c3ccc(F)cc3)ccc21	4.4%	0.8	-0.9	0.65	3.7	-5.2	-1.1
O=C(C(=O)N1CCN(c2ccc(F)cc2)CC1)N1CCCCC1	7.0%	2.9	-0.2	0.67	1.7	-1.5	-1.0
CCCC(CCC)C(=O)Oc1cc(C)[nH]c(=O)c1[N+](=O)[O-]	?	1.7	0.0	0.692	4.8	7.8	-3.1
C/C(CC1(O)C(=O)N(Cc2ccccc2)c2ccccc21)=N\O (stereo not drawn)	3.7%	-4.6	-1.7	.	.	-1.5	7.5
CN1CCN(C2=C(Cl)C(=O)N(C3CCCCC3)C2=O)CC1	20.6%	1.7	0.5	0.694	7.1	-6.2	-12.1
Cc1cc(C)c2c(c1)C1C=CCC1C(c1ccc(S(=O)(=O)N3CCOCC3)cc1)N2 (stereo not drawn)	-8.8%&27.8%	-15.5	0.3	0.675	2.3	-0.5	-3.2
O=C(Cn1ncc2c([nH]c3ccccc32)c1=O)Nc1ccc(F)cc1F	-8.5%	-3.9	-0.8	0.636	5.6	-1.1	-4.8
